Assay outcomes as filed in PubChem.
Cruzain noTriton = blocks cruzain activity in detergent-free assay | purified cruzain, Z-FR-AMC fluorescence, no detergent | Potency, µM, without a hit: max response, negative = inhibition, usual class: inhibitors | 200,000 compounds, 2.3% hits | AID 1476; active = well fitted curve in the direction sought with a large enough effect; inconclusive = small, poorly fitted or top-dose-only effect, or another doubt; inactive = no such curve, though single readings can be large; an effect the other way counts as inactive or inconclusive;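 note: plate controls were enzyme without inhibitor for no effect and buffer without enzyme for full effect; nearly all actives have a fitted effect of over 40% in size; top concentration of the series not given in the record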
Target sequence (P25779 123-467 limits assumed): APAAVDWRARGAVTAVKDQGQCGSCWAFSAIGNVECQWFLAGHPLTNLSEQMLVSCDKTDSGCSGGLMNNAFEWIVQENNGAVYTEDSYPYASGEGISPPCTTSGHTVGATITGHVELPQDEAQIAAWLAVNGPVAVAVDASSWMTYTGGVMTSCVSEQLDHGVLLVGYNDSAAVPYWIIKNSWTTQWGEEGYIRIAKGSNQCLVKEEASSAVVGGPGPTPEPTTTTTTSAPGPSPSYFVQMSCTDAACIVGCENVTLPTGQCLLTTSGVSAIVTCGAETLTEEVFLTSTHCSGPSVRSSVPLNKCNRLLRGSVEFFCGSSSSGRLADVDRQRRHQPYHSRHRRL
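Detergent-free condition (0.00005% Triton X-100) in acetate buffer pH 5.5 with DTT. 1.5 nM enzyme and compound were pre-mixed 15 min, then 2 uM Z-FR-AMC substrate added; reaction progress from fluorescence change between first and third reads (60 s).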
SARS PLpro yeast = inhibitors of SARS-CoV papain-like protease in yeast. S. cerevisiae expressing SARS-CoV PLpro, growth rescue; control for the full effect not named in the record. Potency, µM (series often up to 32.9 µM), inactives show at the highest dose activity, positive = growth rescue. 330,000 compounds, 0.19% hits. AID 485353; note: 0% is about no effect; nearly all actives have a fitted effect of over 55% in size; growth read by luminescence after 48 h
MARV entry inh = Marburg virus entry inhibition. Marburg virus pseudotyped entry inhibition, cell reporter; control for the full effect not named in the record; about a third of the inactives were read at about 46 µM. Potency, µM (top dose mostly 37.8 µM), for inactives: top-dose activity change, negative = inhibition, most hits filed as inhibitors. 300,000 compounds, 1.8% hits. AID 540276; active = well fitted inhibition curve with a large enough effect; inconclusive = small, poorly fitted or top-dose-only effect, or effect the other way; inactive = flat fitted curve, though single readings scatter; tested in HEK293 cells; about a fifth of its hits are not listed in these tables; note: % is set by controls: 0 for no effect and ±100 for the full control effect; luciferase read-out
LASV entry inh = inhibitors of Lassa virus binding or cell entry; Lassa virus pseudotype entry inhibition, cell reporter; control for the full effect not named in the record; Potency, µM (highest dose often 37.9 µM), inactives show at the top dose activity change, negative = inhibition, usual class: inhibitors; 300,000 compounds, 1.2% hits; AID 540256; active means well fitted inhibition curve with a large enough effect; inconclusive means small, poorly fitted or top-dose-only effect, or effect the other way; inactive means flat fitted curve, though single readings scatter; tested in HEK293 cells; note: % is set by controls: 0 for no effect and ±100 for the full control effect; nearly all actives have a fitted effect of over 50% in size; luciferase read-out
Cruzain Triton = blocks cruzain activity in presence of Triton detergent; purified cruzain, Z-FR-AMC fluorescence, 0.01% Triton; Potency, µM, for inactives: max response, negative = inhibition, most hits filed as inhibitors; AID 1478; 200,000 compounds, 0.43% hits; active = well fitted curve in the direction sought with a large enough effect; inconclusive = small, poorly fitted or top-dose-only effect, or another doubt; inactive = no such curve, though single readings can be large; an effect the other way counts as inactive or inconclusive;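 note: plate controls were neutral wells for no effect and buffer without enzyme for full effect; nearly all actives have a fitted effect of over 40% in size; top concentration of the series not given in the record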
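Read-out: AMC fluorescence (360 nm excitation, 450 nm emission), four reads over 2 min, first-to-third difference used. Conditions: cruzain 1.5 nM, Z-FR-AMC 2 uM, pH 5.5 acetate, 5 mM DTT, 0.01% Triton X-100.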
RE007 growth inh = less growth of the S. pombe RE007 Vpr strain. S. pombe RE007 Vpr strain, BacTiter-Glo ATP luminescence, 24 h; control for the full effect not named in the record. Potency, µM (titrated, usually from 92.2 µM), for the others: top-dose activity change, negative = less growth. 360,000 compounds, 0.21% hits. AID 651644; active = well fitted falling curve with a large enough effect; inconclusive = small, poorly fitted or top-dose-only effect; inactive = no such curve, though single readings can be large or run the other way;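 note: % is set by controls: 0 for no effect and ±100 for the full control effect; nearly all actives have a fitted effect of over 50% in size; the assay follows cell death caused by Vpr and the record does not say whether a fall means rescue or toxicity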
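Fission yeast strain RE007, carrying one chromosomally integrated HIV-1 vpr copy, was seeded at OD 0.01 in PMG+AL medium with 23 nL pinned compound. After 24 h at 30 °C and 99% humidity, viability was read by BacTiter-Glo luminescence.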
NS1 inh = influenza NS1 inhibition; S. cerevisiae slowed by influenza A NS1, growth recovery by OD600; 270,000 compounds, 0.4% hits; Potency, µM (top dose mostly 46.1 µM), without a hit: at the top dose activity, positive = more growth; note: actives are rising curves; nearly all actives have a fitted effect of over 50% in size
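Recovery from NS1-induced slow growth read by OD600 in budding yeast switched to galactose assay medium (pH 6.0, -URA) at 1:100 dilution. Compound 23 nl per well; the matching strain lacking NS1 serves as control.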
StopGo reporter = lowers the luciferase signal of an FMDV 2A StopGo reporter; human cells with a luciferase reporter of 2A StopGo recoding; control for the full effect not named in the record; Potency, µM (highest dose often 57.9 µM), for inactives: at the top dose signal change, negative = less light; 410,000 compounds, 1.2% hits; AID 1159524; active = well fitted falling curve with a large enough effect; inconclusive = small, poorly fitted or top-dose-only effect; inactive = no such curve, though single readings can be large or run the other way; tested in HEK293T cells; note: % is set by controls: 0 for no effect and ±100 for the full control effect; nearly all actives have a fitted effect of over 45% in size; luciferase light after 4 h
The depositor's hits bear a star; ? = inconclusive; . = no result given; & = joins results of further samples; [ ] = another dose, or the depositor's remark. Unless noted, calls come from the whole dose curve; as a rule, active means well fitted rising curve with a large enough effect; inconclusive means small, poorly fitted or top-dose-only effect; inactive means no such curve, though single readings can be large or run the other way. Potency is the fitted concentration of half-maximal effect.

[1] Cc1ccc(NC(=O)c2cc(-c3ccccc3)n(CCCN3CCOCC3)c2C)cc1
[2] O=S(=O)(c1ccc(F)cc1)N1CN(Cc2ccco2)c2nc3ccccc3nc21
[3] O=C(CSc1ncnc2ccccc12)Nc1ccc(N2CCOCC2)cc1
[4] COc1cc(/C=N/Nc2nc(C)cc(C)n2)ccc1OC(=O)c1ccco1
[5] O=C(COc1ccc(Br)cc1F)N1CCN(c2ncccn2)CC1
[6] NC(=O)Cn1cc(/C=N\NS(=O)(=O)c2ccc(Cl)cc2)c2ccccc21
[7] O=C(COC(=O)c1ncc(Cl)c(Cl)c1Cl)NC1CCS(=O)(=O)C1 (stereo not drawn)
[8] O=C(OCc1c(F)cccc1Cl)c1cnc2ccccc2n1

Compound | 1 | 2 | 3 | 4 | 5 | 6 | 7 | 8
Cruzain noTriton | . | -27% | -16% | 6% | . | . | . | .
SARS PLpro yeast | 1% | -12% | 2% | 6% | 4% | 1% | -5% | 1%
MARV entry inh | -21% | ? | . | 7% | 10%[46.1 µM] | -7%[46.1 µM] | 9%[46.1 µM] | 6%[46.1 µM]
LASV entry inh | -6% | 11% | . | ? | 2%[46.1 µM] | -7%[46.1 µM] | 7% | 12%
Cruzain Triton | . | -16% | -0.1% | -6.5% | . | . | . | .
RE007 growth inh | -5% | 6% | . | -5% | -19% | 0% | -9% | -2%
NS1 inh | -3% | -32% | 1% | 7% | . | -1% | . | -6%
StopGo reporter | -23% | . | . | 3% | -20% | 36%[activator] | -18% | 1%

[9] O=C(Nc1ccccc1C(=O)NCc1ccco1)c1ccco1
[10] COc1ccccc1NC(=S)Nc1cccc2cnccc12
[11] Cc1ccccc1OCCC(=O)Nc1ccc2c(C)cc(=O)oc2c1
[12] CSc1ccccc1NC(=O)CSc1nnnn1-c1ccccc1SC
[13] O=C(Nc1ccc(F)c(F)c1)c1cc(S(=O)(=O)NC2CCCCCC2)ccc1F
[14] CC1CCN(S(=O)(=O)c2ccc3c(c2)c(=O)c(C(=O)NCc2ccco2)cn3C)CC1
[15] CCc1cccc(C)c1NC(=O)C1=C(C(=O)O)CCCC1
[16] O=C(O)c1cc(N/N=C/C=C/c2ccccc2)ccc1Cl

Compound | 9 | 10 | 11 | 12 | 13 | 14 | 15 | 16
Cruzain noTriton | -1% | -2% | . | -5% | -11% | ? | -2% | .
SARS PLpro yeast | -3% | -4% | 1% | 3% | . | 10% | 3% | -2%
MARV entry inh | -4% | ? | 22%[46.1 µM] | 5% | . | 22% | 13% | ?
LASV entry inh | 28% | -2% | 8%[46.1 µM] | ? | 1%[46.1 µM] | -7% | -4% | -26%
Cruzain Triton | -5.5% | -2.5% | . | 5.8% | -1.5% | -8.6% | 4.7% | .
RE007 growth inh | -12% | 1% | 0% | 7% | . | -19% | 1% | -6%
NS1 inh | -4% | -2% | 18% | 4% | . | 18% | -15% | 15%
StopGo reporter | 3% | ? | -2% | -11% | -10% | 0% | -18% | -14%

[17] CCOc1ccc(C(=O)Nc2cc(-c3nc4ccccc4[nH]3)ccc2Cl)cc1[N+](=O)[O-]
[18] CCOC(=O)N1CCN(C(=O)CSc2nnc(-c3cccs3)o2)CC1
[19] COc1cc(-c2noc(-c3ccc(N4CCOCC4)c([N+](=O)[O-])c3)n2)cc(OC)c1OC
[20] CCOC(=O)C1(CCOc2ccccc2)CCN(Cc2ccc(O)c(OC)c2)CC1
[21] O=C(O)c1ccc(Cl)cc1Nc1nc2cc(Cl)ccc2o1
[22] Cc1c(/C=C/C(=O)c2ccc(Cl)s2)cnn1C
[23] COc1ccccc1CC(=O)Nc1ccc(S(=O)(=O)N2CCOCC2)cc1
[24] Cc1ccc2nc3c(cc2c1)c(NC(=O)c1cccnc1)nn3C

Compound | 17 | 18 | 19 | 20 | 21 | 22 | 23 | 24
Cruzain noTriton | ? | -1% | -17% | . | . | 1% | . | 17%
SARS PLpro yeast | -56% | 4% | . | 5% | -21% | -24% | 0% | -1%
MARV entry inh | 8.9µM* | . | -2%[46.1 µM] | . | ? | ? | 11%[46.1 µM] | -6%
LASV entry inh | ? | . | 12%[46.1 µM] | . | 26%[46.1 µM] | -3% | ? | 0%
Cruzain Triton | ? | 1.2% | -11% | . | . | -11% | . | 5.2%
RE007 growth inh | 3% | 16% | . | -5% | 0% | -13% | -6% | 1%
NS1 inh | -36% | 0% | . | 7% | -26% | -15% | 10% | -8%
StopGo reporter | -11% | -1% | ? | ? | -1% | 22% | -10% | 5%

Four structures from above, sorted by formula weight, lowest first:
[21] O=C(O)c1ccc(Cl)cc1Nc1nc2cc(Cl)ccc2o1
[23] COc1ccccc1CC(=O)Nc1ccc(S(=O)(=O)N2CCOCC2)cc1
[20] CCOC(=O)C1(CCOc2ccccc2)CCN(Cc2ccc(O)c(OC)c2)CC1
[17] CCOc1ccc(C(=O)Nc2cc(-c3nc4ccccc4[nH]3)ccc2Cl)cc1[N+](=O)[O-]

Compound | 21 | 23 | 20 | 17
Cruzain noTriton | . | . | . | ?
SARS PLpro yeast | -21% | 0% | 5% | -56%
MARV entry inh | ? | 11%[46.1 µM] | . | 8.9µM*
LASV entry inh | 26%[46.1 µM] | ? | . | ?
Cruzain Triton | . | . | . | ?
RE007 growth inh | 0% | -6% | -5% | 3%
NS1 inh | -26% | 10% | 7% | -36%
StopGo reporter | -1% | -10% | ? | -11%

Further results
[25] CCOC(=O)/C(C(=O)Nc1ccccc1Cl)=C1/NC(C)(C)Cc2ccccc21
[26] O=C(CSc1nccn(-c2ccc(Br)cc2)c1=O)Nc1ccccc1F
[27] O=C(Nc1ccc(C(=O)O)cc1)/C(=C\c1ccc2c(c1)OCO2)NC(=O)c1ccccc1
[28] O=C(Nc1cccc2ccccc12)/C(=C\c1cccc([N+](=O)[O-])c1)NC(=O)c1cccs1
[29] CN(C)c1ccc(CNc2nc(-c3ccco3)nn2S(=O)(=O)c2ccc(Cl)cc2)cc1
[30] S=C(NCCC(c1ccccc1)c1ccccc1)Nc1cccc(Cl)c1
[31] C(=N\N1CCN(Cc2cccc3ccccc23)CC1)/c1cccnc1
[32] CC1(/[N+]([O-])=C/c2ccccc2F)CCCCC1=O (stereo not drawn)

Compound | 25 | 26 | 27 | 28 | 29 | 30 | 31 | 32
Cruzain noTriton | 5% | . | . | ? | 2% | 16µM* | -3% | .
SARS PLpro yeast | 1% | 5% | -3% | -3% | . | -15% | 4% | 2%
MARV entry inh | ? | 0% | 3% | -18% | ? | -4% | -22% | ?
LASV entry inh | -32% | 5% | -5% | -6% | 3%[46.1 µM] | -28% | 6% | 0%
Cruzain Triton | -8.3% | . | . | -7.6% | -2.6% | 1.7% | -1.0% | .
RE007 growth inh | 10% | -2% | 3% | -18% | . | 17% | 0% | -4%
NS1 inh | 13% | . | . | 2% | . | -13% | 10µM* | .
StopGo reporter | -17% | -7% | -6% | 20% | 25% | 34%[activator] | -21% | 7%

[33] CCC1C(=O)CC(c2ccccc2)NC1c1ccccc1 (stereo not drawn)
[34] COc1ccc(C(=O)NCCS(=O)(=O)NCc2cccnc2)cc1
[35] CC(C)C(C(=O)NC1=NCCS1)c1ccc(Cl)cc1 (stereo not drawn)
[36] Cc1ccnc(NC(=O)COC(=O)c2ccc(F)cc2F)n1
[37] COc1ccc(C(C(=O)NC2CCCCC2)N(C(=O)c2ccccn2)c2cccnc2)cc1 (stereo not drawn)
[38] COc1ccc(C(c2nnnn2Cc2cccs2)N2CCN(c3ccccc3)CC2)cc1OC (stereo not drawn)
[39] COc1cc(OC)cc(C(=O)OCC(=O)c2ccc(S(=O)(=O)N3CCCCC3)cc2)c1
[40] O=c1c2ccccc2nc2n1CCCN2

Compound | 33 | 34 | 35 | 36 | 37 | 38 | 39 | 40
Cruzain noTriton | . | . | . | . | . | 33% | . | .
SARS PLpro yeast | -1% | 5% | -5% | 0% | -1% | 0% | 0% | -5%
MARV entry inh | -11% | -4%[46.1 µM] | -4%[46.1 µM] | 8%[46.1 µM] | -2%[46.1 µM] | -13% | ? | ?
LASV entry inh | ? | 4% | -15% | -24%[46.1 µM] | 7% | ? | 1% | -5%
Cruzain Triton | . | . | . | . | . | -2.3% | . | .
RE007 growth inh | -10% | -16% | -15% | -15% | 0% | 3% | 16% | -3%
NS1 inh | 0% | . | . | -4% | 10% | 0% | . | 2%
StopGo reporter | -4% | -15% | -25% | 3% | 2% | -5% | -19% | 0%

[41] O=C(NCCN1C(=O)S/C(=C\c2ccc(Cl)c([N+](=O)[O-])c2)C1=O)C1=COCCO1
[42] COc1ccccc1/C=C/C(=O)OCC(=O)NC1CCCCCCC1
[43] CCn1nc(/C=C/c2ccccc2)nc2c(=O)n(C)c(=O)nc1-2
[44] COc1nccnc1NS(=O)(=O)c1ccc(NC(=S)NC(=O)c2cccc(F)c2)cc1
[45] O=[As](O)(O)c1ccc(N=Nc2ccc(O)cc2)cc1
[46] CCn1c(=O)cc(SCC(=O)NCCC2=CCCCC2)c2ccccc21
[47] COc1cccc(-c2nnc(SCC(=O)OC(C)C)n2Cc2ccco2)c1
[48] Cc1cc(F)ccc1NC1(c2ccccc2)C(=O)c2ccccc2C1=O

Compound | 41 | 42 | 43 | 44 | 45 | 46 | 47 | 48
Cruzain noTriton | . | . | . | -7% | 3% | 12% | 6% | -5%
SARS PLpro yeast | -8% | -11% | 0% | -3% | 2% | 15% | 1% | .
MARV entry inh | ? | -18% | 0.71µM* | 12% | . | 18% | ? | .
LASV entry inh | ? | -7% | 7.9µM* | 0% | . | 0% | -1% | ?
Cruzain Triton | . | . | . | -8.0% | 4.3% | -4.5% | 1.3% | -5.1%
RE007 growth inh | -10% | -20% | 28µM* | -12% | . | 9% | -6% | .
NS1 inh | . | . | -2% | 20% | -3%&0% | -5% | -45% | .
StopGo reporter | -4% | 0% | 2.5µM* | 27% | 32%[activator] | -15% | -19% | 3%
